Source: PubChem
BasE inh: inhibitors of Acinetobacter baumannii siderophore enzyme BasE; inhibition, % (no concentration beside the values); AID 485350; 84,000 compounds, 0.1% hits; purified BasE, fluorescence polarization binding displacement;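 active means both replicates above 25% with normal brightness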;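 further: 0% = negative plate control signal and 100% = positive plate control signal; stock transfer was 100 nL into about 30 µL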
LANA-nucl inh: LANA-nucleosome interaction inhibition. FITC-LANA1-23 / chicken nucleosome fluorescence polarization; hits give low values. z-score (concentration not given with the values). 51,000 compounds, 0.3% hits;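 active means both repeat wells score below -2 in polarization z-score versus plate sample wells, excluding overly bright wells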;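 further: 100 nL library stock added to about 30 µL; numbers are from one replicate; some results filed as inactive read as strong as hits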
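System – purified chicken nucleosomes with FITC-labelled LANA N-terminal peptide (1-23) · Amount – 240 nM purified chicken nucleosomes (480 nM peptide binding sites), final · Also added – 50 nM FITC-LANA1-23 probe · Medium – TEN-BT buffer, pH 7.5 · Incubation – compound with peptide–nucleosome mix 10–45 min at room temperature · Detection – fluorescence polarization, ex 480 nm, em 535 nm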
* hit, by the source's call; / = no result given; & = joins results of further samples. This is a subset. The share of hits here may be higher or lower than overall.

# | Molecule | BasE inh | LANA-nucl inh
1 | Cc1csc(SCc2ccccc2C(=O)OCC(=O)Nc2nnc(-c3ccccc3)o2)n1 | 1.9 | /
2 | CC(=O)O[C@]1(C(C)=O)CC[C@H]2[C@@H]3C=C(C)C4=CC(=O)CC[C@]4(C)[C@H]3CC[C@@]21C | -1.8 | 0.22&-0.091&-0.5
3 | N=c1sccn1CC(=O)NCc1cccs1 | 0.0 | /
4 | Cc1sc2nc(CSC(C)C(=O)Nc3nnc(C4CC4)s3)[nH]c(=O)c2c1C (stereo unspecified) | -0.3 | /
5 | CCOC(=O)c1c(CC(C)C)csc1NC=C(C#N)C#N | -11 | /
6 | COc1ccc(S(=O)(=O)N(CC(=O)O)c2cc(Cl)ccc2OC)cc1OC | 2.3 | -0.18
7 | COc1ccccc1NC(=O)Nc1c(SC)nsc1SC | -0.1 | -0.4
8 | O=C(Nc1ccccc1)C1CCN(C(=O)c2cccs2)CC1 | 2.0 | 0.29
9 | CCn1c(C)cc(/C=C2/SC(=S)NC2=O)c1C | -0.2 | 0.89
10 | CCCNC(=O)CCc1nc(-c2ccc(C(C)(C)C)cc2)no1 | -0.9 | 1.7
11 | CCOC(=O)NC(=S)Nc1cc(C)cc(C)n1 | 1.2 | 0.017
12 | COc1ccc(-c2noc(CC3=NS(=O)(=O)c4ccccc4N3)n2)cc1 | -3.5 | -0.006
13 | CC1(C)C(=O)Nc2ccccc2N1C(=O)CSc1nnc2ccccn12 | 2.8 | /
14 | Cc1cc(C)cc(NC(=O)C2CCN(Cc3cnn(-c4ccccc4)c3-n3cccc3)CC2)c1 | -3.0 | -0.15
15 | CC(=O)Nc1ccc(CN(CCN(C)C)Cc2ccccc2)cc1 | -2.6 | -0.47
16 | CN(CC(=O)C(C#N)c1ccccc1)C1CCCCC1 (stereo unspecified) | -0.6 | 2.5
17 | CCC(=O)N1CCc2cc(Br)cc(S(=O)(=O)N3CCN(c4ccc(OC)cc4)CC3)c21 | 1.0 | -0.35
18 | Cc1ccc(S(=O)(=O)N2CCC[C@H]2C(=O)N2CCN(Cc3nc4ccccc4s3)CC2)cc1 | -0.2 | /
19 | O=C(O)Cn1c(=O)oc2ccccc21 | 1.1 | /
20 | CCOC(=O)c1cnc2c(OC)cccc2c1N1CCN(c2ccc(OC)cc2)CC1 | 1.7 | 0.32
21 | CC(Nc1ccc(Cl)cc1)C(=O)Nc1ccc(S(N)(=O)=O)cc1 (stereo unspecified) | 1.6 | /
22 | Cc1ccc(OCCNCCN)c(Br)c1 | -1.0 | -1.1
23 | Cc1ccc2nc(SC/C(O)=C(\C#N)c3nc4ccccc4[nH]3)[nH]c2c1 | -9.1 | /
24 | COc1cc(NC(C)=O)ccc1-c1cc2ccccc2oc1=O | -3.7 | -0.063
25 | CCOC(=O)Cc1csc(SCC(=O)NC2CCCCC2)n1 | -0.9 | /
26 | CC1CC(C)CN(C(=O)CSc2nc3ccc(N4CCOCC4)cc3c(=O)n2Cc2ccc3c(c2)OCO3)C1 (stereo unspecified) | -0.5 | -0.19
27 | Cc1ccc(N2CC(C(=O)N(C)Cc3c(F)cccc3Cl)CC2=O)cc1 (stereo unspecified) | -2.6 | /
28 | O=C(c1ccc(S(=O)(=O)NCc2ccco2)cc1)N1CCN(c2ncccn2)CC1 | -1.5 | /
29 | CCOc1ccc2cc3c(N)c(C(=O)N(CC)CC)sc3nc2c1 | -8.0 | 5.4
30 | Cc1ccc(N2NC(=O)CC2=O)cc1Cl | -3.3 | 0.38
31 | O=C(NNc1ccccc1)NNc1ccccc1 | -1.3 | 0.41
32 | c1cc(-c2nc(-c3ccc4c(c3)OCCCO4)cs2)ccc1-c1csnn1 | 2.0 | /
33 | COC(=O)c1sccc1S(=O)(=O)N1CCC(C(N)=O)(N2CCCCC2)CC1 | 1.1 | -0.92
34 | CC(=O)N1N=C(CCn2c3ccccc3c3ccccc32)OC1(C)c1cccs1 (stereo unspecified) | 1.2 | -0.71
35 | COc1cc(Br)cc(/C=N/N(CCO)C2=NS(=O)(=O)c3ccccc32)c1OC | -0.3 | /
36 | O=C(CSc1c[nH]c2ccccc12)NC1CCCC1 | 3.8 | 0.3
37 | Clc1ccc(-c2ncc3ccccn23)cc1 | 2.1 | /
38 | Cc1ccc(C(=O)NC2CCN(C(=O)NC3CCCCC3)CC2)cc1 | 1.9 | 0.45
39 | CN(Cc1cnc2nc(N)nc(N)c2n1)c1ccc(C(=O)NC(CCC(=O)O)C(=O)O)cc1 (stereo unspecified) | -0.3&-1.0 | -0.56&0.0005&0.74
40 | COC(=O)c1ccc(NC(=O)N2CC(C)Oc3ccccc32)cc1 (stereo unspecified) | -1.5 | -0.54
41 | CCOC(=O)c1noc(NC(=O)c2ccc(C(F)(F)F)cc2)c1-c1ccccc1 | 0.3 | /
42 | COc1ccc(-n2nnn(CN3CC(C)OC(C)C3)c2=S)cc1 (stereo unspecified) | 1.4 | /
43 | OCC(O)CN(c1ccccc1)c1ccccc1 (stereo unspecified) | -2.9 | 0.9
44 | O=C(CN1CCN(c2nc3cc(Cl)ccc3s2)CC1)c1ccccc1 | -1.3 | 0.79
45 | CSC1=N/C(=C\c2ccc3c(c2)OCO3)C(=O)S1 | -2.9 | 1
46 | Cc1cc(C(F)(F)F)nn1Cc1ccc(C(=O)O)o1 | 3.3 | -0.82
47 | CC(=O)N1CC(C(=O)N2CCN(S(=O)(=O)c3ccc4c(c3)CCCC4)CC2)Oc2ccccc21 (stereo unspecified) | 0.2 | /
48 | O=C(Cc1cn2ccsc2n1)OCC(=O)N1CCc2ccccc21 | 1.1 | /
49 | COc1ccc(S(=O)(=O)N2CC(O)C[C@H]2C(=O)OCC(=O)N2CCCCCC2)cc1 (stereo partly specified) | -0.6 | /
50 | CNS(=O)(=O)c1cccc(C(=O)OCC(=O)Nc2ccc(N3CCCCC3)cc2)c1 | 4.6 | /
51 | COC(=O)CN1C(=O)S/C(=C\c2ccccc2)C1=O | 3.0 | -0.28
52 | CC(=O)Nc1ccc(S(=O)(=O)N2c3ccccc3NC(=O)CC2C)c(Cl)c1 (stereo unspecified) | -3.0 | 1.4
53 | CN(C)S(=O)(=O)c1cccc(CSc2nnc(-c3ccccc3Br)o2)c1 | 2.0 | /
54 | O=C(Cn1nnc(-c2ccc(Cl)cc2)n1)NC1CCS(=O)(=O)C1 (stereo unspecified) | 1.3 | /
55 | Cc1nn(-c2ccccc2)c2nc(-c3cccs3)cc(-c3nnco3)c12 | -12 | /
56 | O=C1C2C3C=CC(C3)C2C(=O)N1CCCCN1C(=O)C2C3C=CC(C3)C2C1=O (stereo unspecified) | 0.1 | -0.93
57 | COC(=O)C1=C(C)OC(N)=C(C#N)C1c1ccco1 (stereo unspecified) | 0.1 | -0.91
58 | Cc1ccc(SCC(=O)c2ccc(CC(=O)O)s2)cc1 | -1.4 | /
59 | CC(=O)Nc1ccc(NC(=O)CN2Cc3ccccc3C2=O)cc1 | 0.2 | 0.058
60 | COC(=O)c1ccc(CSc2nncn2-c2ccccc2)cc1 | 0.8 | /

(cont.)
# | Molecule | BasE inh | LANA-nucl inh
61 | CC(=O)N1CCC(N(CCN2CCOCC2)C(=S)Nc2cc(F)cc(F)c2)CC1 | 0.6 | 0.051
62 | COCCNc1oc(COc2ccc(Br)cc2)nc1C#N | 1.0 | -0.41
63 | COP(=O)(CC(=O)c1ccccc1)CC(=O)c1ccccc1 | 1.8 | /
64 | O=S(=O)(c1cccc(-c2n[nH]c(=S)n2-c2ccccc2)c1)N1CCCC1 | 3.0 | /
65 | O=C(NCC1(N2CCOCC2)CCCCC1)c1ccc(Cl)c(S(=O)(=O)NCc2ccco2)c1 | 1.6 | /
66 | C=CCn1c(N2CCC(C(N)=O)CC2)nc2c1c(=O)n(C)c(=O)n2C | 2.1 | -0.2
67 | Cc1nnc(CSc2ccc(Cl)c(C(F)(F)F)c2)o1 | -0.8 | /
68 | CCN1CCc2nc(NC(=O)Cc3cn4ccsc4n3)sc2C1 | 0.9 | /
69 | CC(C)CN(CC(C)C)C(=O)C1CCN(S(=O)(=O)c2cccc3nsnc23)CC1 | -0.2 | -0.43
70 | CC1=CC(=C2C(=O)NC(=O)NC2=O)C=C(C)O1 | 3.1 | /
71 | C=CCN(c1ccccc1C(=O)NCC(=O)O)S(=O)(=O)c1ccccc1 | 1.9 | -0.17
72 | C/C(N)=C(/C#N)C(=O)COc1ccc(C#N)cc1 | 0.5 | /

Next part; the last four above are carried over.
# | Molecule | BasE inh | LANA-nucl inh
69 | CC(C)CN(CC(C)C)C(=O)C1CCN(S(=O)(=O)c2cccc3nsnc23)CC1 | -0.2 | -0.43
70 | CC1=CC(=C2C(=O)NC(=O)NC2=O)C=C(C)O1 | 3.1 | /
71 | C=CCN(c1ccccc1C(=O)NCC(=O)O)S(=O)(=O)c1ccccc1 | 1.9 | -0.17
72 | C/C(N)=C(/C#N)C(=O)COc1ccc(C#N)cc1 | 0.5 | /
73 | COc1cc(OC)cc(-c2nnc(SC(C)C(=O)c3ccccc3)o2)c1 (stereo unspecified) | -0.7 | /
74 | COc1ccc(-c2cc3nc(C)cc(C)n3n2)cc1 | 2.3 | /
75 | CCCN=c1cc(-c2ccccc2)oc2ccc(C)cc12 | -0.2 | /
76 | Cc1noc(NS(=O)(=O)c2ccc(N3Cc4ccccc4C3=O)cc2)c1C | 3.5 | /
77 | CCOc1ccc(-c2nonc2NC(=O)C(c2ccccc2)c2ccccc2)cc1 | 0.5 | -0.47
78 | CCC1CCCCN1C(=O)c1cc(Cl)ccc1OC (stereo unspecified) | 0.5 | -0.74
79 | NC(=O)C1=CN(C(=O)Nc2ccccc2)CCC1C(F)(F)F (stereo unspecified) | 1.1 | -1.3
80 | Cc1ccc2nc(NC(=O)C3SC(=NCCN4CCOCC4)C(C(=O)NCc4ccco4)=C3N)sc2c1 (stereo unspecified) | 0.7 | /
81 | COCCn1c(SCC(N)=O)nc2c(c1=O)SCC2 | 0.8 | -0.051
82 | O=c1oc2ccc3ccccc3c2cc1-c1nn(-c2ccccc2)cc1/C=N/O | -2.4 | /
83 | c1ccc2[nH]c(NCCN3CCOCC3)nc2c1 | 0.0 | -0.35
84 | O=c1c2ccccc2c2c(O)nc(-c3ccccc3)n2n1Cc1ccccc1 | 0.2 | /
85 | CC(C)C(=O)Nc1ccc(-c2cn3ccccc3n2)cc1 | -7.2 | 1.1
86 | Clc1ccc(NCc2ccsc2)cc1 | 2.1 | 0.42
87 | Cc1cccc(S(=O)Cc2ccc(C(=O)N3CCCC3)o2)c1 (stereo unspecified) | 2.0 | -0.11
88 | CC1CCCN(C(=O)COC(=O)c2cccnc2Nc2cccc(C(F)(F)F)c2)C1 (stereo unspecified) | 4.5 | /
89 | O=C(CSc1nnc(CNc2cccc(Cl)c2)o1)Nc1cccc(Cl)c1 | 0.8 | -1.3
90 | CCOC(=O)c1sc2nc(C)cc(C)c2c1NC(=O)c1cccs1 | 0.9 | /
91 | O=C(NC1CCCc2ccccc21)c1ccc2c(c1)OCO2 (stereo unspecified) | 2.2 | -1.5
92 | Cc1noc(C)c1CN(C(=S)NC(C)C)c1ccccc1 | 2.3 | /
93 | Nc1cccc2nonc12 | -2.3 | -0.26
94 | CCOc1cc(C2C(C(=O)N3CCCCC3)=C(C)NC3=C2C(=O)CCC3)ccc1OC(C)=O (stereo unspecified) | 0.3 | -1.2
95 | Oc1c(C(c2cccs2)N2CCN(c3ccccc3)CC2)sc2ncnn12 (stereo unspecified) | 2.3 | 0.18
96 | C1=Nn2c(nnc2-c2ccncc2)SC(c2ccccc2)=C1 | 1.9 | -0.64
97 | COc1ccc(-c2nnc(SCC(=O)N(C)C)n2N)cc1OC | 1.6 | /
98 | CSc1nc2ccccc2n(C)c1=O | 1.2 | 0.23
99 | Cc1ccc(OC(=O)C2COc3ccccc3O2)cc1C (stereo unspecified) | -1.8 | /
100 | CN1C(=O)/C(=C\c2coc3ccccc3c2=O)c2ccccc21 | 1.4 | /
101 | NNC(=O)CCn1c(-c2ccccc2)c(-c2ccccc2)c2ccccc21 | 0.7 | /
102 | CC(C)Cn1c2ccc(Br)cc2c2nc3ccccc3nc21 | 1.7 | /
103 | CC1=CC(=O)C=C(C)C1=NS(=O)(=O)c1ccccc1 | 26* | /
104 | CSc1ccc(CNCCCn2ccnc2)cc1 | -11 | 0.3
105 | O=C1NCCN1CCNC(=S)NC1CC1 | 3.3 | /
106 | Cc1noc2ncnc(N3CCC(C(=O)N4CCN(C(=O)c5ccco5)CC4)CC3)c12 | -0.1 | /
107 | Cc1ccc(O)c(N/C=C/C(=O)C(C)(C)C)c1 | -4.3 | 1.6
108 | CCOC(=O)c1ccc2nc(C(F)(F)F)cc(NC3CCN(Cc4ccccc4)CC3)c2c1 | -3.3 | /

Profiles from above. Order of values: BasE inh, LANA-nucl inh
Oc1c(C(c2cccs2)N2CCN(c3ccccc3)CC2)sc2ncnn12 (stereo unspecified) in the list: 2.3, 0.18
CC(=O)N1CCC(N(CCN2CCOCC2)C(=S)Nc2cc(F)cc(F)c2)CC1 in the list: 0.6, 0.051
Cc1csc(SCc2ccccc2C(=O)OCC(=O)Nc2nnc(-c3ccccc3)o2)n1 in the list: 1.9, /
c1ccc2[nH]c(NCCN3CCOCC3)nc2c1 in the list: 0.0, -0.35
CC(C)C(=O)Nc1ccc(-c2cn3ccccc3n2)cc1 in the list: -7.2, 1.1

The list continues.
# | Molecule | BasE inh | LANA-nucl inh
109 | Cc1ccc(-c2nc3ncncn3c2Nc2cccc(C)c2)cc1 | 2.4 | -1.3
110 | CN(Cc1ccccc1)C(=O)Cn1cnc2c(cnn2C)c1=O | -4.2 | /
111 | CCc1ccc2[nH]c(=O)c(C(c3nnnn3C(C)(C)C)N3CCCCC3)cc2c1 (stereo unspecified) | -3.3 | 0.47
112 | O=C1c2cc(OCCN3CCOCC3)ccc2-c2ccc(OCCN3CCOCC3)cc21 | -0.5 | 1.8
